Source: PubChem BioAssay (ICCB-Longwood Screening Facility, Harvard Medical School)
AID504770: growth inhibition of E. coli YBA685, primary screen, V. cholerae RctB inhibitors; 0.27% of 130,000 active; z-score (no concentration beside the values); E. coli YBA685 rctB-dependent plasmid, OD600 growth, 3 h; active compounds read low;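 active means z-score under -2 on both plates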;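 further: wells of about 30 µL received 100 nL stock; score is relative to mean and SD of the test wells; the first replicate is given; strong numbers were not always called active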
Ba CapD inh: Bacillus anthracis CapD inhibitors, primary screen, biochemical, fluorescence intensity | 0.23% of 140,000 active | z-score (test concentration not listed) | purified CapD enzyme, fluorescence intensity read-out; active compounds read low; some hits fall short of the stated cut;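 active means z-score under -4 in either of two replicates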;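 further: stock transfer was 100 nL into about 40 µL; score is relative to mean and spread of the plate; one replicate is shown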
The depositor's hits bear a star; nt = no result given.

Molecule,AID504770,Ba CapD inh
CCN1C(=O)c2ccccc2S(=O)c2ccc(C(=O)NCCN3CCN(Cc4ccccc4)CC3)cc21 (centres undefined),0.45,-1.11
Cc1nc(CSc2nnc(Cc3cccc4ccccc34)n2N)cs1,-3.75,nt
COc1ccc(Cn2c(CCC(=O)NC3CCCC3)nc3cccnc32)cc1,0,0.43
CCN(C(=O)/C=C/c1cccs1)C1CCCCC1,0.7,-0.985
Cc1cccn2c(=O)c(/C=N/NC(N)=S)c(N3CCCC3)nc12,0.25,nt
COc1cc(C(=O)Nc2ccc(Cl)c(-c3nc4cc(Cl)ccc4o3)c2)cc(OC)c1OC,nt,-1.72
Cc1c(C(=O)N(C)C2CCCCC2)sc2nc(-c3ccc(F)cc3)cn12,0.1,0.325
C=CCn1c(SCC(=O)c2cccs2)nc2sc3c(c2c1=O)CCC3,nt,0.09
O=C(/C=C/c1ccc([N+](=O)[O-])cc1)Nn1c(-c2ccc(Br)cc2)nc2ccccc2c1=O,nt,-0.555
COc1ccc(/C(C#N)=C/c2c(-c3ccc(Cl)cc3)nc3c(C)cccn23)cc1,nt,-1.35
CC(C)OC(=O)CC12CN(C)CC(CC(=O)OC(C)C)(CN(C)C1)C2=O,-1.05,nt
CCC(Cc1ccccc1)NC(C)=O (centres undefined),-0.65,0.005
O=C(c1nc(-c2ccccc2)n(-c2ccccc2)n1)N1CCCCC1,-0.95,-1.22
CCOC(=O)c1csc(-c2sccc2Br)n1,-0.35,-0.785
O=C(c1cnn(-c2ccccc2)c1-n1cccc1)N1CCc2ccccc2C1,1.45,-0.135
Cc1ccccc1NC(=O)CN(C)S(=O)(=O)c1cccs1,-0.05,0.485
c1ccc(Oc2ccc(N=NN3CCCCC3)cc2)cc1,-0.7,nt
CS(=O)(=O)Nc1csc(C(F)(F)F)c1-c1ccccc1,-0.5,-0.575
CC(C)c1ccc(N2CC(O)=C(c3nc4ccccc4[nH]3)C2=N)cc1,0.15,25.8
Cc1cccc(NC(=O)CO/N=C/c2cccs2)c1,-1.2,nt
COc1ccc2ncc(-c3ccc(Cl)c(C)c3)nc2c1,0.2,3.47
Cc1ccc(C(=O)N/C(N)=N/c2nc3ccccc3s2)cc1,0.5,-0.98
CN(C)c1ccc(C=C2C(=O)OC(C)(C(C)(C)C)OC2=O)cc1 (centres undefined),1.2,0.2
Cc1ccc(NC(=O)c2c(NC(=O)c3ccccc3Cl)sc3c2CCCCC3)cc1,nt,-0.105
CCc1nnc(SCC(=O)O)o1,-0.6,nt
CC(=O)Nc1ccc2c(c1)CN(Cc1ccccc1)CO2,-0.45,-0.27
CCOC(=O)c1sc(N)c(C#N)c1CSc1nc(-c2ccccc2)cs1,-0.05,nt
Cc1ccc(-n2c(-c3ccco3)nc3c(cnn3-c3ccccc3C)c2=O)cc1F,2.35,0.47
COc1cccc(CNC(=O)c2ccc(S(=O)(=O)N3CCCC3)cc2)c1,-0.5,nt
Cc1cc(C)n2nc(SCC#N)nc2n1,-0.9,0.48
CCOC(=O)c1ncn(-c2ccccc2)n1,-0.4,0.02
O=C(C1CCCO1)N1CCc2ccccc21 (centres undefined),-1.15,nt
O=C(Nc1ccc2oc(-c3c(F)c(F)c(F)c(F)c3F)nc2c1)c1cccs1,1.65,2.52
N#Cc1ccccc1OCC(=O)NC12CC3CC(CC(C3)C1)C2,0,nt
Cc1cc[n+](Cc2ccccn2)c(N)c1,0.5,0.57
C=CCc1c(CCC)nc(SC)[nH]c1=O,-0.7,0.185
O=C(c1ccccc1)N(C(=O)c1ccccc1)c1ccccn1,0.05,nt
CC(=O)c1ccc(NC(=O)CSc2nc3ccc(NC(=O)c4ccccc4)cc3s2)cc1,nt,0.355
CN(C)C(=O)c1cnn(-c2ccccc2)c1NC(=O)c1ccc(Br)cc1,-0.55,-0.26
N#Cc1ccc(-c2cccnc2)nc1SCC(=O)c1ccc(Cl)cc1,nt,-0.34
COc1cc(Nc2nc3ccccc3c3nnc(C)n23)cc(OC)c1OC,0.1,11.3
Cc1cc(OCC(=O)NCCO)cc(C)c1Cl,-0.35,0.005
CCOC(=O)C(C)Oc1ccc2ccc(=O)oc2c1 (centres undefined),-1.6,70
CCCNC(=O)c1sc2nc(-c3ccccc3)cn2c1C,0.05,-0.245
N#Cc1ccc(NC(=O)CCCSc2nc3ccccc3s2)cc1,-0.35,nt

Compound profiles, as listed above. Order of values: AID504770, Ba CapD inh
`CN(C)C(=O)c1cnn(-c2ccccc2)c1NC(=O)c1ccc(Br)cc1` reads -0.55, -0.26
`N#Cc1ccc(NC(=O)CCCSc2nc3ccccc3s2)cc1` reads -0.35, nt
`COc1cc(Nc2nc3ccccc3c3nnc(C)n23)cc(OC)c1OC` reads 0.1, 11.3
`Cc1cc(OCC(=O)NCCO)cc(C)c1Cl` reads -0.35, 0.005
`CCOC(=O)c1ncn(-c2ccccc2)n1` reads -0.4, 0.02

Further results:
Molecule,AID504770,Ba CapD inh
CC(C)Sc1nc2c([nH]c3ccccc32)c(=O)n1-c1ccccc1,-1.4,1.26
COc1cccc(CNC(=O)c2ccc(N3CCCC3=O)cc2)c1OC,0.3,2.56
c1ccc2c(c1)nc1n2CCN1CCNC1CCCCC1,0.7,nt
COC1CS(=O)(=O)CC1OC (centres undefined),0.35,-0.145
C=CCn1c(Sc2ncc(C#N)c(N)n2)nnc1-c1cccs1,-0.35,1.1
COc1ccccc1NC(=O)Cn1cnc2sc(C(=O)Nc3ccc(Br)cc3C)c(C)c2c1=O,nt,-1.07
COC(=O)c1ccc(-c2ccco2)n1CC(=O)N1CCCC1,-0.05,63.7
CCC1(C)CC(CCNCc2ccc(OC)cc2)(c2ccc(C)cc2)CCO1 (centres undefined),nt,-0.38
O=C(c1cnn2ccccc12)N1CCC(C(O)(c2ccccc2)c2ccccc2)CC1,-2.35,0.285
Cc1cc(C)c2c(c1)NC(=O)CC2c1cccc(Cl)c1Cl (centres undefined),-0.2,4.39
COc1cc(C(CC(=O)O)N2Cc3ccccc3C2=O)cc(OC)c1OC (centres undefined),-0.45,0.055
COC(=O)c1sc(N)c(C(=O)OC)c1CN1C(=O)c2ccccc2S1(=O)=O,-0.2,nt
Cc1c(C(=O)N2CCC3(CC2)OCCO3)sc2ncnc(N3CCN(c4ccccc4)CC3)c12,nt,0.835
O=C(NCCc1ccco1)c1ncoc1-c1cccs1,1.5,42.1
COc1ccccc1/C=C/C(=O)Nc1ccccn1,1.6,5.57
CCc1nc2cccnc2n1-c1ccc(CC(=O)N2CCCCCC2)cc1,0.75,0.355
O=C1CSCC(=O)N1c1ccc(OC(F)(F)F)cc1,0.25,-1.52
COc1ccc(N2CCN(c3ccc(NS(=O)(=O)c4ccccc4)nn3)CC2)cc1,0.15,nt
Cc1ccc2[nH]cc(CCNC(=O)OCC3CCCCN3Cc3ccccc3SC(C)(C)C)c2c1 (centres undefined),nt,-1.17
O/N=C1\CCCc2[nH]c3ccccc3c21,nt,0.175
COC(=O)c1ccc(CSc2nnc(-c3ccccc3)o2)o1,-0.05,nt
CS(=O)(=O)c1cnc(-c2ccncc2)nc1-c1cccc(F)c1,nt,-0.28
CC1CC(Nc2ccccc2)c2ccccc2N1C(=O)CCC1CCCCC1 (centres undefined),nt,0.075
Cc1nn(-c2ccccc2)c(Cl)c1C(=O)Nc1sc2c(c1C(N)=O)CCCC2,-0.5,nt
Cn1c(SCC2CCCCO2)nnc1-c1ccccc1 (centres undefined),-0.55,-0.32
CC(C)=NNC(=O)c1c(O)c2ccccc2[nH]c1=O,-0.05,0.21
CCOc1cc(CNCCc2ccccc2)ccc1OC,-0.15,-0.04
Cc1cc(=O)n(CC(=O)N2CCc3ccccc32)c2c1c(C)nn2-c1cccc(F)c1,0.65,-0.48
N#Cc1ccccc1NC(=O)c1cccc(C(F)(F)F)c1,0.75,-0.01
O=C(Oc1cncc(Cl)c1)c1cc2ccccc2s1,-0.05,-0.475

Next results.
| Structure | AID504770 | Ba CapD inh |
| --- | --- | --- |
| CCN(CC)CCN(CC)S(=O)(=O)c1cc(C)ccc1OC | nt | -1.11 |
| CCC(C(=O)Nc1ccc(S(=O)(=O)Nc2nc(C)cc(C)n2)cc1)(C(F)(F)F)C(F)(F)F | nt | -0.04 |
| Nc1nc2nc(-c3ccccc3)cc(-c3ccccc3)n2n1 | -0.45 | 28.3 |
| C=CCn1c(C(C)Oc2ccc(Cl)cc2Cl)n[nH]c1=S (centres undefined) | -0.75 | 0.39 |
| O=C(c1cc(Cl)sc1Cl)N1CCc2ccccc21 | -0.3 | -0.39 |
| OCCSc1nc(-c2cccs2)nc2ccccc12 | 0.05 | nt |
| CC(C)Cn1cc(NC(=O)N2CCCCC2c2cccnc2)c2ccccc2c1=O (centres undefined) | 1.1 | 29.8 |
| Cn1c2ccccc2c2nnc(SCC(=O)Nc3nc4ccc([N+](=O)[O-])cc4s3)nc21 | nt | -0.35 |
| C=CCOc1cc(OCC=C)cc(C(=O)O)c1 | -0.75 | 0.01 |
| CCOC(=O)C1=C(C)NC2=C(C(=O)C(C(=O)OCC)C(c3ccccc3OC)C2)C1c1cccc(OC)c1OC (centres undefined) | nt | 11.7 |
| O=C(Nc1nccs1)c1ccccc1C(=O)Nc1nccs1 | -0.25 | -0.13 |
| COc1cc2c(cc1OC)C(COc1ccc(F)cc1)N(C(=O)c1ccc(Cl)cc1)CC2 (centres undefined) | 1.5 | -0.655 |
| Cc1ccc(C)c(Cn2cnc3c(nnn3Cc3ccccc3F)c2=O)c1 | 0.25 | -0.815 |
| Cc1c(C(=O)NN)nn(-c2ccccc2)c(=O)c1C#N | -0.45 | -2.21 |
| CN1/C(=C\C(=O)COC(=O)C2CC(=O)N(Cc3ccccc3)C2)C(C)(C)c2ccccc21 (centres undefined) | 0.1 | nt |
| COc1ccc(N2CCN(c3nc(Nc4ccc(NC(C)=O)cc4)nc(N4CCCC4)n3)CC2)cc1 | nt | 0.605 |
| O=C(Nc1cccc2ccccc12)C12CC3CC(CC(C3)C1)C2 | 0 | 0.35 |
| Cc1ccc(C(=O)O)cc1NC(=O)c1cccc(Cl)c1 | 0.4 | 0.2 |
| CC(Sc1nnc(-c2ccco2)n1-c1ccccc1)C(=O)c1ccc(Br)cc1 (centres undefined) | 0 | nt |
| Cc1cccc(Nc2ncnc3nc[nH]c23)c1 | -0.3 | -0.545 |
| CCCN1Cc2cccc(C(=O)N3CCN(c4ccccc4)CC3)c2C1=O | 0.25 | -0.575 |
| CCCCNC(=O)C1OC2OC3(CCCCC3)OC2C2OC3(CCCCC3)OC12 (centres undefined) | nt | 0.12 |
| O=C(c1ccccc1)N1CC(=O)N2CCc3ccccc3C2C1 (centres undefined) | -0.75 | nt |
| O=C(Nc1nnc(CCS(=O)(=O)c2ccc(Br)cc2)s1)c1cccs1 | nt | -0.865 |
| COc1ccc(Cl)cc1N(CC(=O)NCCSc1ccccn1)S(=O)(=O)c1ccc(C)cc1 | nt | -0.135 |
| Cc1ccc2c(=O)cc(-c3ccccc3C(=O)O)oc2c1 | 0.2 | -0.345 |
| CCc1ccccc1N(C)C(=O)Cc1nc(-c2ccc(OC)cc2)no1 | -0.1 | 0.135 |
| O=S(=O)(Nc1cccc(Cl)c1)c1cccc(-n2cnnn2)c1 | -0.55 | nt |
| N#C/C(=C\c1cn(Cc2ccc(C#N)cc2)c2ccccc12)C(=O)NCc1ccco1 | 0.6 | nt |
| COc1ccc(Sc2ccccc2C(=O)O)c(C(=O)O)c1 | -1.25 | 0.44 |
| CCOC(=O)c1cc(-c2ccc(OC)c(S(=O)(=O)NC3CC3)c2)on1 | 0.45 | -0.72 |
| COCCNC(=O)c1c(N)n(/N=C/c2ccc(OC)c(OC)c2)c2nc3ccccc3nc12 | 0.5 | nt |
| COc1ccc(C(=O)Cn2cnc3c(cnn3C(C)(C)C)c2=O)cc1 | -1.7 | nt |
| Cc1cc(=O)oc2cc3c(cc12)OCCN3 | -0.35 | nt |
| CSc1sc(C(=O)O)c(C)c1S(=O)(=O)c1ccc(Cl)cc1 | -0.85 | 0.285 |
| CCC(=O)Nc1ccc(N2CCN(C(=O)C(C)C)CC2)cc1 | 0 | 0.865 |
| O=C(Nc1nccs1)C1CCN(S(=O)(=O)c2cccnc2)CC1 | -0.75 | -0.38 |
| Clc1ccc(OCc2nc3ccccc3[nH]2)cc1 | 0.8 | nt |
| CCOC(=O)Nc1ccc2c(c1)N(C(=O)CN)c1ccccc1CC2 | nt | 0.23 |
| O=C(c1cc2ccccc2cc1OCC(O)CN1CCCCC1)N1CCCCC1 (centres undefined) | -0.6 | 0.66 |
| CC1CCc2sc(NC(=O)c3ccco3)c(C#N)c2C1 (centres undefined) | -0.95 | -0.655 |
| Cc1cccc(N2CCN(C(=O)Cn3cnc4onc(-c5ccc(F)cc5)c4c3=O)CC2C)c1 (centres undefined) | 0.15 | 0.055 |
| O=C(OC1CSSCC1OC(=O)c1ccccc1)c1ccccc1 (centres undefined) | 0.35 | -0.445 |
| Cc1cc(C)c(C#N)c(SCC(=O)N(CC(C)C)C2CCS(=O)(=O)C2)n1 (centres undefined) | -1.9 | nt |
| O=c1[nH]ncc(N2CCOCC2)c1Cl | -0.55 | -0.335 |
| Cc1ccc(NC(=S)N(Cc2cn(C)c3ccccc23)C(C)C)cc1 | -1.1 | 2.21 |
| COc1cc(NC(=O)Cn2c(-c3cncs3)nc3ccccc32)cc(OC)c1OC | -1.15 | 0.49 |
| N#Cc1ccccc1NC(=O)CNCC1CCCO1 (centres undefined) | -0.3 | nt |
| N#C/C(N)=C(\C#N)NCc1cccc(Cl)c1 | nt | 0.135 |
| Cc1nnc2c(Nc3ccc4c(c3)OCO4)nc3ccccc3n12 | -0.5 | 12.4 |
| O=C(N/N=C/C1=COCCO1)c1cccnc1 | -2.2 | nt |
| C#CCN1C(=O)S/C(=C/c2ccc3c(c2)OCO3)C1=O | -0.95 | -0.05 |
| c1ccc2oc(SCc3nc4c5c6c(sc5ncn4n3)CCCC6)nc2c1 | -0.35 | nt |
| CSc1nnc(Cn2c(=O)sc3ccccc32)n1-c1cccc(Cl)c1 | -0.85 | nt |
